Insulin prom inh – inhibitors of insulin promoter-driven GFP, primary screen, imaging, TRM-6 cells (human fetal islet line), eGFP reporter, cell count; reporter expression induced with tamoxifen; inhibition, % at 2 µM; 130,000 compounds, 0.9% hits; AID 1273, 2008;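 active = inhibition above the mean plus 3 SD, with well images judged a real hit on visual review, cut at about 60% in these data, passing the limit was not always enough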
RGS16-Gao HTS – modulators of RGS16 binding to Galphao, primary screen, biochemical, human proteins, multiplexed bead flow cytometry | Regulator of G-protein signaling 16 (Homo sapiens) + Guanine nucleotide-binding protein … | bead-based flow cytometry RGS16-Galphao binding, fluorescence; actives lie on both sides | binding response (% of control), % at 10 µM | 220,000 compounds, 0.38% hits;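 active = below 25% or above 175%, edge rows of some plates excepted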;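 note: Galphao activated by GDP with aluminum fluoride before binding; 100% = wells without compound and 0% = beads without RGS; some results beyond the cut were filed as inactive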
GALR2 ag – GALR2 receptor agonists, primary screen, cell-based | Galanin receptor type 2 (Homo sapiens), O43603 | GALR2-expressing cells, agonist activation read-out | activation, %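 (tested at 5 µM)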 | 140,000 compounds, 0.48% hits | AID 803, 2007;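 active = above mean plus 3 SD of all compounds, about 5% in these data, not always enough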;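 note: 0% = vehicle buffer wells and 100% = reference agonist at full effect; tested in CHO reporter cells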
HSV replic up – enhancers of HSV replication in host cells, fold increase, host cell viability | HSV replication augmentation in cells | maximum fold increase | 220,000 compounds, 0.005% hits | AID 1956, 2009;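 active = peak rise of 1.5-fold or more in the series; tested in PC3 cells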;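 note: first round at 10 µM; read as green reporter fluorescence; hits show the peak of a series up to 25 µM; 1 = signal of infected wells without compound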
PKD1 kinase inh – inhibitors of human PKD1 kinase, biochemical, fluorescence polarization; Serine/threonine-protein kinase D1 (Homo sapiens), Q15139; PKD1 kinase fluorescence polarization assay; inhibition, %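 (about 10 µM by stock and volumes)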; 200,000 compounds, 0.056% hits;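 active = inhibition of 50% or more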;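 note: controls were vehicle for no effect and a reference inhibitor for full effect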
Target sequence (Q15139 whole entry, looked up): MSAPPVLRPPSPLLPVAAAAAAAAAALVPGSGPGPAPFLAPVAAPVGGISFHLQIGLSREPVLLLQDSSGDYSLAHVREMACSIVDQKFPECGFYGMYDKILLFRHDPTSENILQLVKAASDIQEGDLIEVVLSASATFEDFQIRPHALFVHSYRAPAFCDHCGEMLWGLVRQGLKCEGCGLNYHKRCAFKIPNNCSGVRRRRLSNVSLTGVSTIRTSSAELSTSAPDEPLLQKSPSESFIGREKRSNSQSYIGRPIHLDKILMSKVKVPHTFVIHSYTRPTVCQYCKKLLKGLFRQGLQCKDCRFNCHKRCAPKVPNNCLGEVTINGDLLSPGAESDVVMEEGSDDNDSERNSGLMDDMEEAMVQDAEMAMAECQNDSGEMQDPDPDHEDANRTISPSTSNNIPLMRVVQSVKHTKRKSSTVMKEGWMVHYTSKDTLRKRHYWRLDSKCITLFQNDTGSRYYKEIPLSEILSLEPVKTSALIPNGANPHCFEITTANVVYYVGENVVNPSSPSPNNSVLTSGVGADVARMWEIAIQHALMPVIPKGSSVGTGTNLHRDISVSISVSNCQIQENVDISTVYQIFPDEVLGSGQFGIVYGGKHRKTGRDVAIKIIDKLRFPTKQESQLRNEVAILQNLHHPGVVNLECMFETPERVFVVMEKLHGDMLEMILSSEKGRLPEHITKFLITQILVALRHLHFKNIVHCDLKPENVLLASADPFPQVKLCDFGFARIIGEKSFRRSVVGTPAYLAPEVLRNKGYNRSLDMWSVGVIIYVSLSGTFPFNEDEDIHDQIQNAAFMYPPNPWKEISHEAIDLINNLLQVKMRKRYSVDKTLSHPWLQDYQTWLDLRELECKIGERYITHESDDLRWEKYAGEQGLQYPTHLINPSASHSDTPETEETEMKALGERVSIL
Insulin prom inh cell count – also measured in Insulin prom inh; calls as there; normalized cell count, %; measured here: cell count, toxicity; reference of the scale not given here;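 cells exposed to compound for 48 h; stained nuclei by imaging scaled within each plate; lower means fewer cells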
HSV replic up primary fold – also measured in HSV replic up; calls as there; fold increase; compound at 10 µM; measured here: primary screen fold increase 10 uM; tested in PC3 cells;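 GFP signal in the first replicate; 1 = infected wells without compound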
Active calls of the source: *.

O=C(c1cccnc1Nc1ccccc1F)N1CCOCC1 was read as RGS16-Gao HTS 99, HSV replic up inactive, PKD1 kinase inh 2 and HSV replic up primary fold 1.
Screening CCCC(=O)Nc1ccc(C(=O)NN=C(C2CC2)C2CC2)cc1 returned Insulin prom inh 14, RGS16-Gao HTS 109, GALR2 ag -0.5, HSV replic up inactive, PKD1 kinase inh 1, Insulin prom inh cell count 100 and HSV replic up primary fold 0.92.
Screening O=C(NCCn1cc(SCc2ccccc2F)c2ccccc21)c1c(F)cccc1F returned Insulin prom inh -5, GALR2 ag -3.5, HSV replic up inactive, PKD1 kinase inh -3, Insulin prom inh cell count 119 and HSV replic up primary fold 0.92.
`COc1ccc(/C=N/NC(=O)C(=O)NCc2cccnc2)cc1OC` gave RGS16-Gao HTS 102, GALR2 ag -4.2, HSV replic up inactive, PKD1 kinase inh -7 and HSV replic up primary fold 0.92.
`COc1ccc(OC)c(C(c2nnnn2C2CCCC2)N2CCc3ccccc3C2)c1` (configuration not stated) gave RGS16-Gao HTS 103, GALR2 ag -0.2 and PKD1 kinase inh -19.
`Cc1cccn2c(=O)c(/C=C(\C#N)C(=O)NC3CCS(=O)(=O)C3)c(N3CCC(C(N)=O)CC3)nc12` (configuration not stated) gave Insulin prom inh 6, RGS16-Gao HTS 103, GALR2 ag 6.3*, HSV replic up inactive, PKD1 kinase inh -1, Insulin prom inh cell count 70 and HSV replic up primary fold 1.1.
Screening COc1ccc(NS(=O)(=O)c2cccc(C(=O)N/N=C/c3ccc(O)cc3)c2)cc1 returned Insulin prom inh 47, RGS16-Gao HTS 98, HSV replic up inactive, PKD1 kinase inh -8, Insulin prom inh cell count 112 and HSV replic up primary fold 0.89.
For CNS(=O)(=O)c1cnccc1N1CCN(C)CC1 the results were Insulin prom inh 0, RGS16-Gao HTS 58, GALR2 ag -1.2, HSV replic up inactive, PKD1 kinase inh -3, Insulin prom inh cell count 62 and HSV replic up primary fold 0.97.
Screening COC(=O)c1ccc(CSc2nnnn2-c2ccc(C)cc2C)o1 returned Insulin prom inh -6, RGS16-Gao HTS 99, GALR2 ag -3.3, HSV replic up inactive, PKD1 kinase inh -4, Insulin prom inh cell count 113 and HSV replic up primary fold 0.8.
`Cn1c(N)c(C(=O)c2ccc(Oc3ccccc3)cc2)c(=O)n(C)c1=O` gave Insulin prom inh 33, RGS16-Gao HTS 103, GALR2 ag -1.2, HSV replic up inactive, PKD1 kinase inh -9, Insulin prom inh cell count 106 and HSV replic up primary fold 0.94.
COc1cc(NC(=O)c2ccccc2Cl)ccc1NC(=O)c1cccs1 was read as Insulin prom inh -27, RGS16-Gao HTS 113, HSV replic up inactive, PKD1 kinase inh -11, Insulin prom inh cell count 77 and HSV replic up primary fold 0.98.
Screening Cc1oncc1C(=S)Nc1ccccc1 returned RGS16-Gao HTS 193, GALR2 ag -1.4, HSV replic up inactive, PKD1 kinase inh -12 and HSV replic up primary fold 0.89.
For Cc1nc(NC(=O)C2CC2)sc1C(=O)N1CCCCC1 the results were RGS16-Gao HTS 103, GALR2 ag -1.4, HSV replic up inactive, PKD1 kinase inh 7 and HSV replic up primary fold 0.83.
CCn1cc(C2=NOC(C(=O)Nc3cc(OC)c(Cl)cc3OC)C2)c(C)n1 (configuration not stated) was read as RGS16-Gao HTS 99, GALR2 ag -0.2, HSV replic up inactive, PKD1 kinase inh -2 and HSV replic up primary fold 0.71.
CCCn1c(SCC(=O)N2c3ccccc3Sc3ccccc32)nc2c1c(=O)n(C)c(=O)n2C was read as Insulin prom inh -29, RGS16-Gao HTS 106, GALR2 ag 2.9, HSV replic up inactive, PKD1 kinase inh -6, Insulin prom inh cell count 95 and HSV replic up primary fold 0.87.
CCN(CC)C(=O)c1scc2c1OCCO2 was read as Insulin prom inh 0, RGS16-Gao HTS 105, GALR2 ag -0.6, HSV replic up inactive, PKD1 kinase inh 3, Insulin prom inh cell count 73 and HSV replic up primary fold 0.89.
Screening CC1=NN(c2ccc(C)cc2C)C(=O)C1C(c1cccc(O)c1)C1C(=O)N(c2ccc(C)cc2C)N=C1C (configuration not stated) returned Insulin prom inh 24, RGS16-Gao HTS 97, GALR2 ag -1.6, HSV replic up inactive, PKD1 kinase inh -4, Insulin prom inh cell count 129 and HSV replic up primary fold 0.67.
COC(=O)C1=C(C)N(c2ccc(F)c(Cl)c2)C(=O)C1 was read as Insulin prom inh 50, RGS16-Gao HTS 65, GALR2 ag -1.2, HSV replic up inactive, PKD1 kinase inh -5, Insulin prom inh cell count 89 and HSV replic up primary fold 0.9.
For CCOC(=O)N1CCN(C(=O)c2ccc(OC(C)=O)cc2)CC1 the results were Insulin prom inh -43, RGS16-Gao HTS 105, HSV replic up inactive, PKD1 kinase inh -2, Insulin prom inh cell count 71 and HSV replic up primary fold 0.97.
Screening CN1C(=O)NC2C1N(S(C)(=O)=O)CCN2S(C)(=O)=O (configuration not stated) returned Insulin prom inh -36, RGS16-Gao HTS 102, GALR2 ag -0.4, HSV replic up inactive, PKD1 kinase inh 1, Insulin prom inh cell count 149 and HSV replic up primary fold 0.85.
Screening CCOc1cc(C2C(C(=O)c3ccc(C)cc3)=C(C(=O)OC)Nc3nnnn32)ccc1O (configuration not stated) returned Insulin prom inh 6, RGS16-Gao HTS 99, GALR2 ag 0.2, HSV replic up 2.1*, PKD1 kinase inh 3, Insulin prom inh cell count 73 and HSV replic up primary fold 1.4*.
CCCN(Cc1ccccc1)C(=S)Nc1ccc(SC(F)F)cc1 was read as Insulin prom inh 8, RGS16-Gao HTS 101, HSV replic up inactive, PKD1 kinase inh -7, Insulin prom inh cell count 119 and HSV replic up primary fold 1.
Cc1cc2nnc(SCC(=O)N3CCN(c4ccccc4)CC3)n2c(N)n1 was read as Insulin prom inh 74*, RGS16-Gao HTS 92, GALR2 ag -1.0, HSV replic up inactive, PKD1 kinase inh 4, Insulin prom inh cell count 82* and HSV replic up primary fold 1.1.
Screening C=CCC(=O)NC(C)c1cnn(-c2ccccc2C)c1C (configuration not stated) returned RGS16-Gao HTS 100, HSV replic up inactive, PKD1 kinase inh 6 and HSV replic up primary fold 0.88.
`CCC(C)[C@H](NC(=O)NCCCc1ccccc1)C(=O)OC` (some centres not stated) gave Insulin prom inh -40, RGS16-Gao HTS 104, GALR2 ag -1.2, HSV replic up inactive, PKD1 kinase inh 1, Insulin prom inh cell count 188 and HSV replic up primary fold 0.99.
`Cc1ccn2cc(CC(=O)O)nc2c1` gave RGS16-Gao HTS 97, HSV replic up inactive, PKD1 kinase inh 3 and HSV replic up primary fold 1.4.
Screening Nc1cc(N)nc(SCc2cc(=O)oc3cc4c(cc23)CCC4)n1 returned RGS16-Gao HTS 110, GALR2 ag -1.6, HSV replic up inactive, PKD1 kinase inh 6 and HSV replic up primary fold 0.95.
`O=C(Nc1ccccc1Cl)c1cccc(NC(=O)C2C3CC4OC(=O)C2C4C3)c1` (configuration not stated) gave Insulin prom inh -31, RGS16-Gao HTS 101, GALR2 ag -0.1, HSV replic up inactive, PKD1 kinase inh 1, Insulin prom inh cell count 99 and HSV replic up primary fold 0.96.
For CC(=O)c1cccc(NC(=O)C(OC(=O)c2ccccc2NS(=O)(=O)c2cccs2)c2ccccc2)c1 (configuration not stated) the results were Insulin prom inh -7, RGS16-Gao HTS 101, GALR2 ag -0.4, HSV replic up inactive, PKD1 kinase inh 1, Insulin prom inh cell count 135 and HSV replic up primary fold 0.89.
CN(C)S(=O)(=O)N1CCCC(C(=O)c2ccc(-c3ccccc3)cc2)C1 (configuration not stated) was read as RGS16-Gao HTS 120, HSV replic up inactive, PKD1 kinase inh -5 and HSV replic up primary fold 1.
CC(Nc1nc(N2CCNCC2)nc2ccccc12)c1ccccc1 (configuration not stated) was read as Insulin prom inh 27, RGS16-Gao HTS 103, HSV replic up inactive, PKD1 kinase inh -1, Insulin prom inh cell count 58 and HSV replic up primary fold 0.58.
Screening CC12CCC(c3nnc(SCC(=O)Nc4cccc5ccccc45)nc31)C2(C)C (configuration not stated) returned Insulin prom inh -10, RGS16-Gao HTS 100, GALR2 ag -2.3, HSV replic up inactive, PKD1 kinase inh -7, Insulin prom inh cell count 159 and HSV replic up primary fold 0.85.
Screening COCCNC(=O)CC(NS(=O)(=O)c1ccc(NC(C)=O)cc1)C(C)C (configuration not stated) returned Insulin prom inh 0, RGS16-Gao HTS 102, GALR2 ag -2.5, HSV replic up inactive, PKD1 kinase inh -1, Insulin prom inh cell count 108 and HSV replic up primary fold 0.93.
`COCCN1CCC(CNCc2cn[nH]c2-c2ccc(C)c(C)c2)C1` (configuration not stated) gave RGS16-Gao HTS 122, HSV replic up inactive, PKD1 kinase inh -3 and HSV replic up primary fold 1.
Screening COc1cc(C(=O)N2CCN(c3ccc(C)cc3C)CC2)cc(OC)c1OC returned RGS16-Gao HTS 145, GALR2 ag -1.6, HSV replic up inactive, PKD1 kinase inh -10 and HSV replic up primary fold 0.69.
For CC(C)(C)N1CC(c2nc3ccccc3n2Cc2ccccc2)CC1=O (configuration not stated) the results were Insulin prom inh -15, RGS16-Gao HTS 100, GALR2 ag 0.4, HSV replic up inactive, PKD1 kinase inh -2, Insulin prom inh cell count 131 and HSV replic up primary fold 0.93.

Quoted at random: 2 records from the list
`O=C(Nc1ccccc1Cl)c1cccc(NC(=O)C2C3CC4OC(=O)C2C4C3)c1` (configuration not stated) gave Insulin prom inh -31, RGS16-Gao HTS 101, GALR2 ag -0.1, HSV replic up inactive, PKD1 kinase inh 1, Insulin prom inh cell count 99 and HSV replic up primary fold 0.96.
For CC(C)(C)N1CC(c2nc3ccccc3n2Cc2ccccc2)CC1=O (configuration not stated) the results were Insulin prom inh -15, RGS16-Gao HTS 100, GALR2 ag 0.4, HSV replic up inactive, PKD1 kinase inh -2, Insulin prom inh cell count 131 and HSV replic up primary fold 0.93.

(more compounds)
`Cc1ncc(CN2CCN(Cc3ccccc3)C(CCO)C2)s1` (configuration not stated) gave RGS16-Gao HTS 91, HSV replic up inactive, PKD1 kinase inh -1 and HSV replic up primary fold 0.96.
`Cc1ccc(C)c(C(=O)NCc2ccncc2)c1` gave Insulin prom inh -5, RGS16-Gao HTS 96, GALR2 ag -2.5, HSV replic up inactive, PKD1 kinase inh 1, Insulin prom inh cell count 76 and HSV replic up primary fold 0.78.
Screening C=CCn1c(=O)c2ccccc2n2c(SCC(N)=O)nnc12 returned Insulin prom inh -9, RGS16-Gao HTS 102, GALR2 ag -1.2, HSV replic up inactive, PKD1 kinase inh -3, Insulin prom inh cell count 78 and HSV replic up primary fold 0.83.
`COc1ccc(-c2nnc(SCC(=O)N3c4ccccc4Sc4ccccc43)o2)cc1` gave Insulin prom inh -60, RGS16-Gao HTS 107, GALR2 ag -2.1, HSV replic up inactive, PKD1 kinase inh -3, Insulin prom inh cell count 149 and HSV replic up primary fold 0.97.
For Cc1ccc(NC(=S)N(CCCN2CCOCC2)Cc2ccco2)cc1C the results were Insulin prom inh -11, RGS16-Gao HTS 102, HSV replic up inactive, PKD1 kinase inh 7, Insulin prom inh cell count 102 and HSV replic up primary fold 1.
Screening COc1ccc([N+](=O)[O-])cc1NC(=O)COC(=O)C1CC1 returned Insulin prom inh 46, RGS16-Gao HTS 103, HSV replic up inactive, PKD1 kinase inh 2, Insulin prom inh cell count 93 and HSV replic up primary fold 1.
`O=C(CSc1nnc(NCc2ccccc2)s1)c1ccco1` gave Insulin prom inh -24, RGS16-Gao HTS 103, GALR2 ag -2.5, HSV replic up inactive, PKD1 kinase inh 0, Insulin prom inh cell count 103 and HSV replic up primary fold 0.88.
For Cc1ccc2cc(CCNC(=O)CC(C)C)c(=O)[nH]c2c1 the results were RGS16-Gao HTS 99, GALR2 ag -2.0, HSV replic up inactive, PKD1 kinase inh 6 and HSV replic up primary fold 0.85.
Screening O=C(Nc1ccc(N2CCCC2)cc1)c1cccc(F)c1 returned Insulin prom inh 55, RGS16-Gao HTS 97, GALR2 ag -1.2, HSV replic up inactive, PKD1 kinase inh -11, Insulin prom inh cell count 82 and HSV replic up primary fold 0.63.
Cn1ncc2cc(NC(N)=S)ccc21 was read as Insulin prom inh 47, RGS16-Gao HTS 106, HSV replic up inactive, PKD1 kinase inh -8, Insulin prom inh cell count 105 and HSV replic up primary fold 0.72.
Screening COc1ccc(OC)c(/C=C2/Sc3ccccc3C2=O)c1 returned RGS16-Gao HTS 112, HSV replic up inactive, PKD1 kinase inh 2 and HSV replic up primary fold 1.

Screens: PubChem BioAssay, several laboratories
